Compound activity from PubChem.
StopGo FLuc – FMDV 2A StopGo reporter, firefly signal; 120,000 tested, 0.23% active; HEK cells with a luciferase reporter of 2A StopGo recoding; Potency, µM (series often up to 57.5 µM), for inactives: top-dose signal change, negative = less light; active = well fitted falling curve with a large enough effect; inconclusive = small, poorly fitted or top-dose-only effect; inactive = no such curve, though single readings can be large or run the other way; also: nearly all actives have a fitted effect of over 60% in size; overnight with compound
StopGo RLuc – lowers the Renilla signal of an FMDV 2A StopGo reporter; 120,000 tested, 0.32% active; Potency, µM (titrated, usually from 57.5 µM), inactives show at the top dose signal change, negative = less light; HEK cells with a luciferase reporter of 2A StopGo recoding; active means well fitted falling curve with a large enough effect; inconclusive means small, poorly fitted or top-dose-only effect; inactive means no such curve, though single readings can be large or run the other way; also: nearly all actives have a fitted effect of over 55% in size; overnight with compound
* marks the source's active call; other numbers are inactive results; ? = inconclusive; & = joins results of further samples; [ ] = remark or other dose. % is scaled to controls: 0 for no effect and ±100 for the full control effect; potency is read from the fitted curve at half-maximal effect.

SMILES | StopGo FLuc | StopGo RLuc
COc1ccc(CN(C(=O)c2cccc(C#N)c2)C(C)C2CC2)cc1 (stereo unspecified) | 0% | 26%
Cc1cc(C(=O)Nc2ccc(Br)cn2)no1 | 204%[activator] | 45%[activator]
Cc1cc(C)cc(NC(=O)Nc2cccs2)c1 | 17% | 48%[activator]
COc1ccc2c(c1)C=C(C(=O)NCc1cc(Br)ccc1OC)CO2 | 0% | 31%[activator]
CCN1C(=O)NC(c2ccccc2OC(F)F)C(C(=O)OC)=C1C (stereo unspecified) | -8% | -9%
O=C1C2CC3CC1CC(C(=O)O)(C3)C2 | 14% | 9%
COC(=O)C1=C(CS(=O)(=O)c2ccc(Cl)cc2)NC(=O)NC1c1ccc(O)cc1 (stereo unspecified) | -8% | -10%
COc1cccc(CNCc2cccs2)c1OCc1ccccc1 | 10% | -15%
CC/C=C(/C)C(=O)N(C)Cc1ccsc1 | 21% | 13%
COc1cccc(-c2nc(S(=O)(=O)c3ccccc3)c(N3CCC(C)CC3)o2)c1 | -17% | 131%[activator]
Cc1nn2c(C)c(C(=O)NCCc3ccccc3)cnc2c1-c1ccccc1 | 32%[activator] | 3%
COCCCn1c(SCc2cccc(Cl)c2)nc2c(sc3ccccc32)c1=O | -8% | -13%
O=C(CSc1nc(Nc2ccccc2)c2ccccc2n1)NC1CC1 | 14% | 28%
CC(C)(C)c1[nH]c2ccc(Br)cc2c1C=O | 0% | 21%
COc1cccc(C(=O)OCc2cc3ccccc3[nH]c2=O)c1 | 20% | 9%
COc1ccc(Oc2coc3cc(OC(=O)c4cccc(Cl)c4)ccc3c2=O)cc1 | 5% | -6%
S=C(Nc1ccn(C23CC4CC(CC(C4)C2)C3)n1)NC1CCCC1 | -1% | 11%
Cc1ccc2[nH]c(C(=O)NC(C)c3ccccc3)cc2c1 (stereo unspecified) | ? | ?
O=C(Nc1cccc(C(F)(F)F)c1)C1C(c2ccccc2)=C1c1ccccc1 | -1% | 21%
COc1ccccc1NC(=O)c1c(C)cc(C)nc1SCC(=O)Nc1cccc(C)c1 | -17% | 40%[activator]
CC(=O)NNC(=S)Nc1cccc(C(F)(F)F)c1 | 5% | 0%
COc1ccccc1CNC(=O)CCC(=O)N1CCSc2nc(C)cc(C)c21 | 12% | 1%
CCCCOc1ccc(CNC(=O)Cc2ccc(NC(=O)N3CCSc4ncccc43)cc2)cc1 | 11% | -35%
O=C(c1cc(-c2cccs2)on1)N1CCCC1c1ccccc1F (stereo unspecified) | -9% | ?
CC(C)(C)N(Cc1ccccc1)C(=O)Cn1nc(C(=O)O)c2ccccc2c1=O | 1% | -3%
Cc1ccc(-n2c(SCc3ccccc3)nc3c([nH]c4ccccc43)c2=O)cc1 | -6% | -10%
Cc1ccc(C)c(CN2C(=O)c3ccccc3S(=O)c3ccc(C(=O)N4CCOCC4)cc32)c1 (stereo unspecified) | -7% | 8%
CCCc1c(C)c2ccccc2[nH]c1=O | 18% | 63%[activator]
Cc1ccc(-c2nc(C#N)c(NCCN3CCOCC3)o2)cc1 | 0% | 22%
CCCCC(CC)C(=O)Nc1ccc(C)cc1Br (stereo unspecified) | 14% | 19%
COc1cc(CNC(=O)c2cc3cccc(OC)c3oc2=O)ccc1OC(F)F | 118%[activator] | -10%
Cc1ccc(C)c(NC(=O)CN(C)S(=O)(=O)c2ccc3c(c2)CCC(=O)N3)c1 | -12% | -12%
Cc1ccc(C(=O)N2CCc3cc(CNS(=O)(=O)c4ccc(Cl)s4)ccc32)cc1 | 20% | 75%[activator]
CC(C)CCNC(=O)NC(=O)CSc1nc2ccccc2c(=O)n1C1CC1 | 7% | -3%
CCCCn1c(C)c(C(=O)OCC)c2cc(OC(C)=O)ccc21 | -9% | -21%
CCOc1ccccc1NC(=O)c1nc(SC(C)C)ncc1Cl | 4% | 7%
COc1c(Br)cc(F)cc1NC(=O)Cc1coc2cc(C)c(C)cc12 | 9% | 30%[activator]
COc1ccc(-c2nc3sc(CCNC(=O)Cc4ccc(Cl)cc4)c(C)n3n2)cc1 | 14% | -4%
COc1ccccc1Nc1ncnc2c1nc1n2CCCC1 | 99%[activator] | -6%
CCCCc1ccc(C(=O)NCc2ccccn2)cc1 | 143%[activator] | 15%
CCC1C(c2ccccc2)NC(c2ccccc2)CC1(O)c1ccc(F)cc1 (stereo unspecified) | ? | ?
CCCS(=O)(=O)N1CCC(C(=O)NCCOC)CC1 | -12% | -1%
Cc1ccc(C(=O)N2CCc3ccc(NC(=O)Nc4ccc(C)c(F)c4)cc32)cc1 | ? | ?
COc1ccc(Cn2ccc3nc(C)c(C(=O)Nc4ccc(C)c(F)c4)cc3c2=O)cc1 | 25% | 2%
CCc1cccc(OCc2ccc(C(N)=O)cc2)c1 | 155%[activator] | 33%[activator]
CCOC(=O)c1c(C)n(CC(=O)OC)c2ccc(OC)cc12 | 1% | 1%
O=S(=O)(c1ccc(F)cc1)N1CCN(c2nnnn2-c2ccccc2)CC1 | -5% | -7%
CCOC(=O)C1=C(c2ccccc2)OC(=C(C(F)(F)F)C(F)(F)F)S1 | -7% | -5%
O=C(c1ccc(Cl)cc1Cl)N(CCS(=O)(=O)N1CCCC1)Cc1cccnc1 | 7% | 9%
Cc1ccc(/C=C(/C#N)c2nc3ccccc3[nH]2)cc1 | 32%[activator] | 37%[activator]

Additional structures follow.
SMILES | StopGo FLuc | StopGo RLuc
Cc1ccc(C(CNC(=O)c2sc3ccccc3c2Cl)N2CCCC2)o1 (stereo unspecified) | -14% | -10%
CCOC(=O)C1(C)C=C(Nc2cccc(C)c2)C(=O)N1c1ccccc1 (stereo unspecified) | 20% | -34%
COc1cc(NC(=O)c2cc(=O)c3cc(C)ccc3o2)cc(OC)c1OC | 13% | 7%
C[C@H](N)C(=O)c1ccccc1 | -3%[27 µM] | -13%[129 µM]
COc1ccc(/C=C/c2nc3ccccc3o2)c(OC)c1OC | 177%[activator] | 3%
CCOc1ccc(NC(=O)Cn2cc(C(=O)c3ccccc3)c(=O)c3cc4c(cc32)OCCO4)cc1 | -6% | -5%
COc1ccc2c(c1)c1c(c(=O)n(Cc3ccccc3)c(=O)n1CC(=O)NCc1ccc(C)cc1)n2C | -29% | -11%
Cc1cc(C)n(C(C)CC(=O)Nc2cccc(C(F)(F)F)c2)n1 (stereo unspecified) | -15% | 8%
Cc1ccc(-c2csc(Nc3ccccc3C)n2)cc1 | 99%[activator] | 32%[activator]
CC1CCN(S(=O)(=O)c2ccc3c(c2)N(C)C(=O)CC(=O)N3C)CC1 | -13% | -7%
COc1cc(/C=C(\C#N)c2nc3ccccc3[nH]2)ccc1O | 332%[activator] | 62%[activator]
CCc1ccc(S(=O)(=O)NCc2cccn2Cc2cccc(C)c2)cc1 | 0% | 314%[activator]
Cc1ccc(N(C)C(=O)Cn2ncc3c([nH]c4ccccc43)c2=O)cc1C | 12% | 7%
Cc1ccccc1OCc1nc(C#N)c(N2CCOCC2)o1 | 49%[activator] | 22%
COc1ccc(NC(=O)c2c(NCc3sccc3C)sc3c2CCCCC3)c(OC)c1 | -3% | -2%
Cc1c(C(=O)N2CCCC2)oc2c1-c1nn(CC(=O)NCc3ccccc3F)cc1CC2 | 29% | 13%
CC1=C(C(=O)OCC2CCCCC2)C(c2cccc(F)c2F)CC(=O)N1 (stereo unspecified) | -5% | 0%
Cc1ccc2[nH]c(=O)c(C3=NN(C(=O)c4cccs4)C(c4ccco4)C3)c(-c3ccccc3)c2c1 (stereo unspecified) | ? | ?
O=C(Nc1cccc(Cl)c1Cl)c1cc2nc(-c3ccc(Cl)cc3)cc(C(F)(F)F)n2n1 | -19% | -14%
NNc1cccc(S(=O)(=O)c2cccc(NN)c2)c1 | 15% | 12%

Exported as comma-separated lines: part of the list above
SMILES,StopGo FLuc,StopGo RLuc
COc1ccc(Cn2ccc3nc(C)c(C(=O)Nc4ccc(C)c(F)c4)cc3c2=O)cc1,25%,2%
CCc1cccc(OCc2ccc(C(N)=O)cc2)c1,155%[activator],33%[activator]
CCOC(=O)c1c(C)n(CC(=O)OC)c2ccc(OC)cc12,1%,1%

Next part
SMILES | StopGo FLuc | StopGo RLuc
Cn1c(=O)c2c(nc(Oc3ccccc3)n2Cc2ccc(F)cc2)n(C)c1=O | -5% | -7%
Cn1c(CCN2CCCCC2)nc2cc(NC(=O)c3ccccc3Cl)ccc21 | -6% | -21%
Cc1oc2cc(OC(=O)c3ccc(S(C)(=O)=O)cc3)ccc2c(=O)c1-c1ccccc1 | 0% | -7%[1.06 µM]
CCOCCc1nn2c(=O)cc(COC(=O)c3ccc(NC(=O)C(C)(C)C)cc3)nc2s1 | -29% | -29%
Cc1ccc(C)c(CN2CCCN(Cc3ccccc3C)S2(=O)=O)c1 | -17% | 3%
Cc1cccc(NC(=O)c2cc3cc(Cl)ccc3nc2C)c1 | -11% | -19%
Cc1cc(C(=O)CN2CCN(CC(=O)Nc3ccc(F)cc3)CC2)c(C)n1CCc1cccs1 | 13% | -6%
Cc1ccc2occ(-c3cc(-c4ccc(F)cc4)nc4c3COc3ccc(F)cc3-4)c(=O)c2c1 | -13% | -3%
O=C(Cn1c(=O)oc2ccccc21)Nc1ccc(C(=O)O)cc1 | 32%[activator] | 17%
CN1CCN(c2nc3c(S(=O)(=O)c4ccc(Br)cc4)nnn3c3ccsc23)CC1 | -19% | 10%
O=C(CSc1nncn1-c1ccccc1)Nc1cccc(S(=O)(=O)N2CCCCC2)c1 | 15% | 18%
O=S(=O)(NCc1ccc(N2CCOCC2)nc1)c1ccc(Cl)cc1C(F)(F)F | 1% | 29%
Cc1cc(=O)oc2cc(OCC(=O)Nc3ccc(C(N)=O)cc3)ccc12 | 4% | -3%
Cc1cc(C)c2oc(-c3cccc(NC(=O)COc4ccc([N+](=O)[O-])cc4)c3)nc2c1 | 81%&-7%[activator] | 5%&-7%
CC(C(=O)NC(C)(C)C)N(c1ccc(F)cc1)S(C)(=O)=O (stereo unspecified) | 0% | -3%
O=C(COC(=O)c1ccc(N2CCCC2=O)cc1)c1ccccc1 | 66%[activator] | -3%
COC(=O)C(NC=O)C(O)(c1ccc(OC)cc1)C(F)(F)F (stereo unspecified) | 8% | 9%
Cc1cccc(N2CCN(C(=O)c3ccc4c(c3)N(Cc3cccc(Cl)c3)C(=O)c3ccccc3S4=O)CC2)c1C (stereo unspecified) | -17% | -1%
C=CCNC(=O)CNC(=O)NCc1ccc(F)cc1 | 12% | 10%
CCCn1c(C)cc(C(=O)COC(=O)c2cc(C)nc3ccccc23)c1C | 0% | -15%

No new results follow: entries from further up.
SMILES | StopGo FLuc | StopGo RLuc
COc1ccc(NC(=O)c2c(NCc3sccc3C)sc3c2CCCCC3)c(OC)c1 | -3% | -2%
Cc1c(C(=O)N2CCCC2)oc2c1-c1nn(CC(=O)NCc3ccccc3F)cc1CC2 | 29% | 13%
CC1=C(C(=O)OCC2CCCCC2)C(c2cccc(F)c2F)CC(=O)N1 (stereo unspecified) | -5% | 0%
Cc1ccc2[nH]c(=O)c(C3=NN(C(=O)c4cccs4)C(c4ccco4)C3)c(-c3ccccc3)c2c1 (stereo unspecified) | ? | ?
O=C(Nc1cccc(Cl)c1Cl)c1cc2nc(-c3ccc(Cl)cc3)cc(C(F)(F)F)n2n1 | -19% | -14%
NNc1cccc(S(=O)(=O)c2cccc(NN)c2)c1 | 15% | 12%
Cn1c(=O)c2c(nc(Oc3ccccc3)n2Cc2ccc(F)cc2)n(C)c1=O | -5% | -7%
Cn1c(CCN2CCCCC2)nc2cc(NC(=O)c3ccccc3Cl)ccc21 | -6% | -21%
Cc1oc2cc(OC(=O)c3ccc(S(C)(=O)=O)cc3)ccc2c(=O)c1-c1ccccc1 | 0% | -7%[1.06 µM]
CCOCCc1nn2c(=O)cc(COC(=O)c3ccc(NC(=O)C(C)(C)C)cc3)nc2s1 | -29% | -29%
Cc1ccc(C)c(CN2CCCN(Cc3ccccc3C)S2(=O)=O)c1 | -17% | 3%
Cc1cccc(NC(=O)c2cc3cc(Cl)ccc3nc2C)c1 | -11% | -19%
Cc1cc(C(=O)CN2CCN(CC(=O)Nc3ccc(F)cc3)CC2)c(C)n1CCc1cccs1 | 13% | -6%
Cc1ccc2occ(-c3cc(-c4ccc(F)cc4)nc4c3COc3ccc(F)cc3-4)c(=O)c2c1 | -13% | -3%
O=C(Cn1c(=O)oc2ccccc21)Nc1ccc(C(=O)O)cc1 | 32%[activator] | 17%
CN1CCN(c2nc3c(S(=O)(=O)c4ccc(Br)cc4)nnn3c3ccsc23)CC1 | -19% | 10%
O=C(CSc1nncn1-c1ccccc1)Nc1cccc(S(=O)(=O)N2CCCCC2)c1 | 15% | 18%
O=S(=O)(NCc1ccc(N2CCOCC2)nc1)c1ccc(Cl)cc1C(F)(F)F | 1% | 29%
Cc1cc(=O)oc2cc(OCC(=O)Nc3ccc(C(N)=O)cc3)ccc12 | 4% | -3%
Cc1cc(C)c2oc(-c3cccc(NC(=O)COc4ccc([N+](=O)[O-])cc4)c3)nc2c1 | 81%&-7%[activator] | 5%&-7%
CC(C(=O)NC(C)(C)C)N(c1ccc(F)cc1)S(C)(=O)=O (stereo unspecified) | 0% | -3%
O=C(COC(=O)c1ccc(N2CCCC2=O)cc1)c1ccccc1 | 66%[activator] | -3%
COC(=O)C(NC=O)C(O)(c1ccc(OC)cc1)C(F)(F)F (stereo unspecified) | 8% | 9%

These rows are one share of the data (hit frequency here may not be typical).
